High-throughput results from PubChem BioAssay.
Mtb betalactam – beta-lactam sensitization of Mtb H37Rv. 0.27% of 330,000 active. AID 434955. M. tuberculosis H37Rv growth with meropenem, percent inhibition; hits of this screen are not shown here. inhibition, % at 25 µM;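 active = about 74% or more and at least 40 points above the plate without the antibiotic, then above 30% in a dose series; inconclusive = first-round hits that could not be retested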;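 note: growth measured after seven days incubation then overnight dye step; 0% = bacteria only wells and 100% = bacteria with antibiotic; twin plates without the antibiotic show which effects depend on it; some results filed as inactive read as strong as hits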
RecA intein inh – Mtb RecA intein splicing inhibition. P9WHJ3. cell-free RecA intein splicing, fluorescence. inhibition, %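 (about 9 µM by stock and volumes)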. 0.75% of 290,000 active; in the data active = inhibition above about 30%; inconclusive = no clear call, values can overlap the other calls;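 note: 0% = vehicle wells and 100% = reference inhibitor control wells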
Target sequence (P9WHJ3 whole entry, looked up): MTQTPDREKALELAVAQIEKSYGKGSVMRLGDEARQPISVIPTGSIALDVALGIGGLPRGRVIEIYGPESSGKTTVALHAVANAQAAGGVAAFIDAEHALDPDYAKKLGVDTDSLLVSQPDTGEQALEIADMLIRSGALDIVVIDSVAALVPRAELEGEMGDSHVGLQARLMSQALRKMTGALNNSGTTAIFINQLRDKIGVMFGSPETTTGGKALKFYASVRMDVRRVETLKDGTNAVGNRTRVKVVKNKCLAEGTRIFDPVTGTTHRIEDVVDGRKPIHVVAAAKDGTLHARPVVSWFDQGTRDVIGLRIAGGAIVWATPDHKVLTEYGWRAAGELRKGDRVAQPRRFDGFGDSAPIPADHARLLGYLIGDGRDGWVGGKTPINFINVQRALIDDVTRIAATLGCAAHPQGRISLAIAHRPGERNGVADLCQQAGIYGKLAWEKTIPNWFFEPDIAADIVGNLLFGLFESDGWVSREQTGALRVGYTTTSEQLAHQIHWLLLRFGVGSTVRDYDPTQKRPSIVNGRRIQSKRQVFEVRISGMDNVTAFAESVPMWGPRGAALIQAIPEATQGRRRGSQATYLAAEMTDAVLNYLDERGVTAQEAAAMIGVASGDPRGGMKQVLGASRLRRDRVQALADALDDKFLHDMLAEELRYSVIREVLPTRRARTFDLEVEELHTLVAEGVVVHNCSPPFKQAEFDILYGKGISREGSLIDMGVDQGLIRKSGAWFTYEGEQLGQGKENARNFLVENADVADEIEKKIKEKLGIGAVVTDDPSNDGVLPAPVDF
YopH inh – YopH (Yersinia) phosphatase inhibition; fluorescence Ex485/Em525; inhibition, %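 (about 10 µM by stock and volumes)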; 0.16% of 140,000 active; AID 898;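 active = inhibition of 50% or more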;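 note: controls were vehicle for no effect and minimum signal wells for full effect; inactives centre near -20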
Mtb H37Rv – M. tuberculosis H37Rv growth inhibitors, H37Rv strain (AID 1626) | M. tuberculosis H37Rv growth inhibition; higher % means a stronger effect | inhibition, % at 10 µM; hits with a dose series show IC50 in µM | 0.95% of 220,000 active;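 active = confirmed in a dose series; inconclusive = inhibition above 80% but not taken into the dose series; inactive = below 80% or under 30% at every dose of the series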;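 note: bacteria incubated seven days before Alamar blue readout; 0% = bacteria only wells and 100% = bacteria with antibiotic wells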
Arbovirus inh – blocks arbovirus infection; 0.37% of 200,000 active; arbovirus infection cell-based antiviral screen; inhibition, % at 10 µM; AID 1251;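 active = inhibition from about 30%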;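 note: bluetongue infection of BSR cells; cell survival read as ATP light after 72 h; 0% = infected wells without compound and 100% = uninfected wells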
Arbovirus inh repeat – second read-out of Arbovirus inh, no call of its own (marks repeat the call); inhibition, %; measured here: 10K subset replicate screen; many hits read low in the repeat;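 first of two repeat runs on a subset; 0% = infected and 100% = uninfected wells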
Active calls of the source: *; u = inconclusive; x = no result given. An excerpt. The share of hits here may be higher or lower than overall.

SMILES	Mtb betalactam	RecA intein inh	YopH inh	Mtb H37Rv	Arbovirus inh	others
Cc1cc(C)n2nc(C(=O)Nc3nccs3)nc2n1	7	-0.4	-10	-4%	0
COc1cc(C)c(CNc2cccc(C)c2)cc1C	1	6.8	-38	3%	-3
Cc1ccc(CNc2ccc(CNc3ncn[nH]3)cc2)cc1	7	-0.6	-1	0%	-10
COC(=O)C(Cc1cnc(Cl)s1)(C(=O)OC)c1ccccc1[N+](=O)[O-]	-14	4.4	-7	8%	-1
CCOC(=O)c1sc(NC(=O)Cn2nnc3sc4c(c3c2=O)CCC(C(C)(C)C)C4)nc1C (centres undefined)	x	2.9	-23	28%	5
Cc1cc(C)c(S(=O)(=O)/N=C2/C=C(SCC(=O)O)C(=O)c3ccccc32)cc1C	x	x	x	-2%	1
COc1ccc(OC)c(S(=O)(=O)NC2CCCCC2)c1	4	-3.6	8	-7%	4
Cc1ccc(C)c(S(=O)(=O)N2CCN(C(=O)Cn3[nH]c(=O)c4ccccc4c3=O)CC2)c1	-7	2.9	x	x	x
CC(C)(C)NC(=S)NCCc1ccccc1	2	4.4	-39	3%	12
CN(C(=O)/C=C/c1ccc2c(c1)OCO2)c1ccccc1	8	4.0	x	2%	-16
Cc1cc(C)nc(NC(=NCCc2c[nH]c3ccccc23)NC(=O)C(C)(C)C)n1	-6	0.0	x	3%	x
Cc1cc(C)c(S(=O)(=O)Nc2ccccc2C(=O)N2CCOCC2)c(C)c1	-2	-0.4	x	x	x
N#CC1=C2SCN(Cc3ccccc3)CN2C(=O)CC1c1ccc2c(c1)OCO2 (centres undefined)	-3	3.4	-39	-6%	7
COc1ccc(S(=O)(=O)N2CC(=O)Nc3ccccc32)cc1C	1	-3.2	x	x	x
O=C(CCCN=C1NS(=O)(=O)c2ccccc21)OCC(=O)c1ccccc1	-11	-0.1	x	x	x
N#Cc1c(NC(=O)c2ccncc2)sc2c1CCC2	x	0.8	-40	-4%	2
N#Cc1ccccc1Cn1c(=O)n(C2CCCC2)c(=O)c2ccccc21	5	9.4	-10	-6%	0
S=C1NC(c2ccccc2)=NCN1c1ccccc1	8	-2.7	-5	-9%	10
O=C(O)c1ccc(N/N=C/c2ccc(F)c(F)c2)cc1	4	-0.5	-14	7%	-4
CC(C)(C)OC(=O)N1CCC(CC2CC(c3ccccc3)=NO2)(C(=O)O)CC1 (centres undefined)	-4	1.9	x	-3%	x
C/C(N)=C(/C#N)C(=O)COC(=O)c1ccncc1	-6	1.8	-4	-1%	-3
COC(CNC(=O)c1cn(C)c2ccc(S(=O)(=O)N3CCOCC3)cc2c1=O)OC	0	-0.1	x	x	x
Cc1ccc(NC(=O)C2Cc3ccccc3C(=O)O2)cc1 (centres undefined)	-1	-7.5	x	x	1
Cc1ccccc1N(C)S(=O)(=O)c1nnc(NC(=O)c2ccco2)s1	-9	1.6	x	x	x
CCOc1ncccc1C(=O)OCC(=O)Nc1ccc(S(=O)(=O)N2CCOCC2)cc1	6	-0.2	-26	-3%	6
SMILES	Mtb betalactam	RecA intein inh	YopH inh	Mtb H37Rv	Arbovirus inh	others
CN1/C(=C/C2CC(=O)N(c3ccc([N+](=O)[O-])cc3)C2=O)C(C)(C)c2ccccc21 (centres undefined)	91	-0.7	-9	16%	6
COCCNC(=O)CCCn1c(=O)c2cc(OC)c(OC)cc2n(CC(=O)c2ccccc2)c1=O	-3	0.5	x	-5%	2
CCCC[n+]1ccn(C2=C([O-])c3ccccc3C(=O)/C2=N\S(=O)(=O)c2ccc(Cl)cc2)c1	-8	2.6	x	-8%	x
O=C(O)/C=C/C(=O)Nc1cccc(C(F)(F)F)c1	-1	3.9	-16	-2%	6
O=C(Cn1cnc2c(oc3nc4c(cc32)CCCC4)c1=O)Nc1cccc(Cl)c1	-8	1.0	x	x	x
C=CCN(Cc1ccc(OC)c(OC)c1)C(=O)N1CCOCC1	-1	0.1	x	x	x
Cc1nn(-c2ccccc2)c(C)c1NC(=O)COc1ccc(F)cc1Cl	-2	-2.9	-29	-9%	1
Cc1nn(CC(=O)NCc2ccccc2)c(=O)c2ccccc12	-5	0.2	-34	1%	-1
CCOc1ccc(NC(=O)CSc2nnc(C)n2CC2CCCO2)cc1 (centres undefined)	-2	1.7	-1	7%	-6
Cc1cc(C)cc(OCC(=O)O/N=C(\N)Cc2ccc([N+](=O)[O-])cc2)c1	53	-3.5	x	8%	x
O=C(COC(=O)c1cccs1)Nc1ccc(S(=O)(=O)N2CCOCC2)cc1	1	1.7	-21	2%	1
C/C(=N\OC(=O)Nc1ccc(Cl)cc1)c1ncc(C(F)(F)F)cc1N1CCOCC1	-11	2.1	-9	25%	3
O=C(CN1CCS(=O)(=O)CC1)N/N=C/c1cccc(C(F)(F)F)c1	-12	-0.2	x	x	x
CC1CCN(c2c(NCC3CCC(C(=O)NCCCc4ccccc4)CC3)c(=O)c2=O)CC1 (centres undefined)	-8	-2.0	x	-7%	x
O=C(CCc1ccccc1)NNC(=O)COc1ccccc1Cl	-1	0.4	x	x	x
CC(=O)Nc1ccc(-n2c(=O)c3ccccc3c3ccccc3c2=O)cc1	19	9.0	x	46%	-2
COC(=O)c1ccc[n+](CC(=O)Nc2ccc(OC(F)F)cc2)c1	-8	x	x	4%	-1
CCOc1ccc(-c2cn(-c3ccccc3OC)c(=S)[nH]2)cc1	11	0.4	x	x	x
COc1cccc(/C=C2\SC(=O)N(CCC(=O)NCCCn3ccnc3)C2=O)c1	-3	2.3	x	x	x
Cc1nc2sccn2c(=O)c1CCN1CCC(=C(c2ccccc2)c2ccc(F)cc2)CC1	97	19	-13	2%	-44
CCOc1ccc(S(=O)(=O)N(CC(N)=O)c2ccc(C)cc2)cc1	1	-4.5	-21	1%	-4
CCOC(=O)CNC(=O)Cn1cnc2c(nnn2-c2cccc(Cl)c2)c1=O	15	0.2	32	-4%	-2
O=C(NCCCc1ccccc1)C1CCC(=O)N(CCc2ccc(Cl)cc2)C1 (centres undefined)	2	1.7	x	x	x
O=C(O)c1cc2n(n1)C(C(F)(F)F)CC(C1CC1)N2 (centres undefined)	-12	-3.6	x	6%	x
Cc1cc(C)c(C#N)c(OCc2ccc(Cl)nc2)n1	2	-1.2	x	x	x
SMILES	Mtb betalactam	RecA intein inh	YopH inh	Mtb H37Rv	Arbovirus inh	others
CC1CCN(C(=O)C(Cc2ccccc2)n2cccc2)CC1 (centres undefined)	-2	1.8	-17	5%	4	Arbovirus inh repeat=3
CN1CCN(C(=S)Nc2cccc(C(F)(F)F)c2)CC1	3	-3.0	-14	0%	7
COc1ccc(S(=O)(=O)NCC(=O)N(CC(=O)NCC2CCCO2)Cc2ccc(F)cc2)cc1 (centres undefined)	-4	-2.0	x	x	x
COCC(=O)Nc1nnc(CCc2ccccc2)s1	-3	-0.2	-45	2%	2
Cc1cc(Cl)ccc1OC(C)C(=O)Nc1ccc(S(=O)(=O)Nc2cnc3ccccc3n2)cc1 (centres undefined)	-6	x	-20	3%	-22
O=C(COC(=O)c1cccs1)Nc1cccc(S(=O)(=O)N2CCOCC2)c1	2	-0.4	-24	-5%	-3
COc1cccc(-c2c(C(=O)N/N=C(\C)COc3ccccc3)nnn2-c2nonc2N)c1	23	-3.4	x	x	x
O=C(NC1CCCCC1)C1CCCN1S(=O)(=O)c1ccc(Cl)cc1 (centres undefined)	3	2.1	x	x	x
CN(Cc1ccccc1)c1nc2c(c(=O)n(C)c(=O)n2C)n1CCCc1ccccc1	5	12	-8	8%	-10
CC(NC(=O)CN(C)Cc1cccs1)c1ccccc1 (centres undefined)	3	-0.5	x	4%	3
Cc1[nH]c(=O)[nH]c(=O)c1S(=O)(=O)N1CCCC(C(=O)N2CCN(c3ccccc3Cl)CC2)C1 (centres undefined)	5	-1.5	-6	-6%	6
Cc1ccc(C(=O)NCCS(=O)(=O)N2CCN(c3ccccc3F)CC2)cc1[N+](=O)[O-]	4	20	x	x	x
COc1ccc(-n2c(COc3cccc(C)c3)nnc2SCC(=O)O)cc1	-10	1.1	x	x	x
O=c1[nH]c(=O)n(C2CCCCC2)c(O)c1C=Nc1ccc(N2CCOCC2)cc1	5	-1.5	-17	-2%	-6
Cc1ccc(C)c(N(CC(=O)NCCC2=CCCCC2)S(C)(=O)=O)c1	-10	0.0	-12	1%	7
O=C(N/N=C/c1cc(Cl)ccc1O)c1cccnc1	7	-3.2	x	x	x
O=C(NC1CCCCC1)c1sc(=S)n2c1[nH]c(=O)c1ccccc12	-5	-50	-52	-5%	11
CCOC(=O)c1sc2c(c1C)c(=O)n(Cc1ccccc1)c(=O)n2CCN(C)C	2	2.2	x	x	x
COc1ccc(C(O)P(=O)(OCCC(C)C)c2ccc(N(C)C)cc2)cc1OC (centres undefined)	0	-2.2	x	-18%	x
CC(NC(=O)c1cccc(S(=O)(=O)N2CCN(C)CC2)c1)c1ccc(Cl)cc1Cl (centres undefined)	65	2.3	x	x	x
Cc1cc(=O)n(Cc2ccccc2)c(O)c1C#N	-5	2.1	x	x	x
CCOc1ccccc1NC(=O)c1oc2ccccc2c1NC(=O)C1CC1	u	3.0	x	x	x
COCCCNC(=S)NNC(=O)c1ccccc1Br	5	-3.7	x	-1%	5
NC(=O)C1=C[C@@H](c2ccc(Br)cc2)C[C@@H](OCc2ccc(CO)cc2)O1	53	5.3	x	-4%	1
CCc1cc(OCCN2C(=O)NC(C)(C)C2=O)ccc1Cl	-4	1.5	-14	-5%	12
SMILES	Mtb betalactam	RecA intein inh	YopH inh	Mtb H37Rv	Arbovirus inh	others
O=C(Nc1ccc(Cl)c(Cl)c1)OCCNC(=O)c1cccc(Cl)c1	-11	15	-13	32%	-2
COCCCNC(=S)N1CCC(C(=O)c2ccc(Cl)cc2)CC1	-3	-0.5	x	x	x
CC(C)(Oc1ccc(Cl)cc1)C(=O)NCc1ccc(S(N)(=O)=O)cc1	-16	-6.6	x	2%	5
CC(=O)c1sc(NC(=O)c2ccccc2C)nc1C	-2	1.1	x	-6%	-10
CCn1c(SCc2nc3ccccc3[nH]2)nnc1-c1ccncc1	4	-2.9	14	4%	-1
Cc1c(C)c2ccc(OCC(=O)N[C@@H](Cc3c[nH]c4ccccc34)C(=O)O)cc2oc1=O	-3	0.3	x	x	x
O=C(CSc1nnc(-c2cccnc2)n1Cc1ccco1)c1ccccc1	3	4.3	-19	x	2
CCOC(=O)C1CCCN(C(=O)CS(=O)(=O)Cc2ccccc2)C1 (centres undefined)	3	0.6	32	x	7
Cc1nc(SCC(=O)c2cccs2)c2oc3ccccc3c2n1	10	-2.2	-20	0%	5
O=C(CCc1nnc(Cc2cccc(C(F)(F)F)c2)o1)NCC(F)(F)F	-3	-0.5	x	-6%	2
OCCN(Cc1ccccc1)Cc1nc(CC2CC2)no1	-7	0.1	x	1%	7
CC12CCC(C(=Nc3ccc(N=C4C(=O)C5(C)CCC4C5(C)C)cc3)C1=O)C2(C)C	-7	0.2	x	2%	x
COc1ccc(COC(=O)c2ccc(C)c(S(=O)(=O)N3CCOCC3)c2)cc1F	-3	1.9	x	x	x
CCO[C@H]1OC(C(N)=O)=C[C@@H](C)[C@@H]1CCCO	-14	-1.4	x	6%	3
O=C(c1ccc(CS(=O)Cc2ccccc2Cl)o1)N1CCN(c2ccccn2)CC1 (centres undefined)	-1	-0.2	x	x	x
CCCn1c(N)c(C(=O)CSc2nc(C)nc3sc(C)c(C)c23)c(=O)[nH]c1=O	1	1.8	x	x	x
O=[N+]([O-])c1ccccc1S(=O)(=O)Nc1ccc(S(=O)(=O)N2CCOCC2)cc1	-6	-1.5	x	x	x
O=C(CSc1ccc(-c2cccnc2)nn1)Nc1ccc(Br)cc1	3	1.1	x	x	x
CC(C)Cn1nc(NC(=O)c2cccs2)c2cc3ccccc3nc21	14	-36	x	13%	x
CC1=C(C(=O)OC2CCCCCCC2)C(c2ccc(O)cc2)NC(=O)N1 (centres undefined)	0	10	-30	1%	9	Arbovirus inh repeat=8

By substructure: the entries above with a tert-butyl group.
SMILES	Mtb betalactam	RecA intein inh	YopH inh	Mtb H37Rv	Arbovirus inh	others
CCOC(=O)c1sc(NC(=O)Cn2nnc3sc4c(c3c2=O)CCC(C(C)(C)C)C4)nc1C (centres undefined)	x	2.9	-23	28%	5
CC(C)(C)NC(=S)NCCc1ccccc1	2	4.4	-39	3%	12
Cc1cc(C)nc(NC(=NCCc2c[nH]c3ccccc23)NC(=O)C(C)(C)C)n1	-6	0.0	x	3%	x
CC(C)(C)OC(=O)N1CCC(CC2CC(c3ccccc3)=NO2)(C(=O)O)CC1 (centres undefined)	-4	1.9	x	-3%	x

Fetched by structure from the entries so far:
SMILES	Mtb betalactam	RecA intein inh	YopH inh	Mtb H37Rv	Arbovirus inh	others
CCOC(=O)C1CCCN(C(=O)CS(=O)(=O)Cc2ccccc2)C1 (centres undefined)	3	0.6	32	x	7
O=[N+]([O-])c1ccccc1S(=O)(=O)Nc1ccc(S(=O)(=O)N2CCOCC2)cc1	-6	-1.5	x	x	x
CCO[C@H]1OC(C(N)=O)=C[C@@H](C)[C@@H]1CCCO	-14	-1.4	x	6%	3
